Bioassay records: PubChem, ICCB-Longwood Screening Facility, Harvard Medical School
GIV-Gai inh = GIV-Galpha-i interaction inhibition. P08753. Galpha-i3/FITC-GIV peptide fluorescence polarization, 90 min; hits give low values; scaled: aluminum fluoride 0%, vehicle 100%. percent of control (FP), % (test concentration not listed). 210,000 compounds, 0.42% hits;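 active = replicate mean at 85% of control or lower, very high polarization wells dropped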;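 note: wells of about 15 µL received 100 nL stock; the first replicate is given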
Target sequence (P08753 whole entry, looked up): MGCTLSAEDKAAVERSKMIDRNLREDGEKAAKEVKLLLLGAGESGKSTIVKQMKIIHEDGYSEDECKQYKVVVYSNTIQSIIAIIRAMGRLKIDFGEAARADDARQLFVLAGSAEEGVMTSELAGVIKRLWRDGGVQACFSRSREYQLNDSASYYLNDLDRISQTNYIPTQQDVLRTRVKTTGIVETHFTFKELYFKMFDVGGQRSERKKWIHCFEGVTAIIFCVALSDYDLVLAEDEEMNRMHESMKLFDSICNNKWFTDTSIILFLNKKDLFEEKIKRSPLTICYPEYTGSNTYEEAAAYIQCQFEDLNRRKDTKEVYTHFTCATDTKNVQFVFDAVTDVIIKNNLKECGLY
* = called active by the depositor.

SMILES	GIV-Gai inh
CN1CCN(C2=NC(=O)/C(=C/c3ccc(Cl)cc3)S2)CC1	99
O=C(CCc1nc(N2CCCCC2)c2c(-c3ccc(F)cc3)noc2n1)NCc1ccccc1	99
Cc1n[nH]c(C)c1S(=O)(=O)N1CCCC(c2nnc(C(=O)Nc3ccccc3)s2)C1 (stereo not drawn)	100
CCOC(=O)c1ccc2c(c1)nc(C1CCN(S(=O)(=O)c3ccc(C)cc3)CC1)n2C1CCCCC1	101
CN1CCc2c(sc(NC(=O)CN3C(=O)c4ccccc4C3=O)c2-c2nc3ccccc3s2)C1	124
CCOc1cc(-c2nc3sc4c(c3c(=O)[nH]2)CCCC4)ccc1OCc1ccccc1Cl	106
O=C(Nc1cc(F)cc(F)c1)c1cccc(-c2cc(NC3CCCCC3)ncn2)c1	109
O=[N+]([O-])c1cccc(-c2noc(CCCOc3ccc(Cl)cc3Cl)n2)c1	103
Cc1cccc(-c2noc(-c3nn(-c4ccccc4)ccc3=O)n2)c1	98
COc1cc(/C=C2/C(=N)N3C(c4ccccc4)=CSC3=NC2=O)ccc1OCc1ccc(F)cc1	103
Cc1cc2nc3c4cccc5cccc(c(=O)n3c2cc1C)c54	101
CCS(=O)(=O)c1nc2ccc(NS(=O)(=O)c3cnc[nH]3)cc2s1	100
CCN1CCN(S(=O)(=O)c2cc(-c3nnc(C4CCCC4)o3)co2)CC1	94
CC(=O)Nc1cc(-c2nc(-c3ccc4c(c3)Sc3ccccc3C(=O)N4C)no2)ccc1C	100
O=C(CCCc1c[nH]c2ccccc12)NCCc1c[nH]c2ccccc12	106
COc1cccc2c1OC(c1cccc(F)c1)N1N=C(c3ccco3)CC21 (stereo not drawn)	138
O=C(c1cccc([N+](=O)[O-])c1)N1N=C2CCCCCC2C1(O)C(F)(F)F (stereo not drawn)	106
CNc1nc(OCC(F)(F)F)nc(N2CCN(Cc3ccccc3)CC2)n1	109
COc1ccc(C2N(c3cccc(C)c3)CCN2c2cccc(C)c2)cc1[N+](=O)[O-]	117
CC1(C)CC(=O)C2=C(C1)N(c1cccc(C(F)(F)F)c1)C(N)=C(C#N)C2c1cccs1 (stereo not drawn)	113

Reformatted with each value named: part of the list above
> O=C(CCCc1c[nH]c2ccccc12)NCCc1c[nH]c2ccccc12
  GIV-Gai inh: 106
> O=[N+]([O-])c1cccc(-c2noc(CCCOc3ccc(Cl)cc3Cl)n2)c1
  GIV-Gai inh: 103
> CNc1nc(OCC(F)(F)F)nc(N2CCN(Cc3ccccc3)CC2)n1
  GIV-Gai inh: 109
> CN1CCN(C2=NC(=O)/C(=C/c3ccc(Cl)cc3)S2)CC1
  GIV-Gai inh: 99

(next part)
SMILES	GIV-Gai inh
O=C(NCCN1CCOCC1)c1ccc2c(c1)ncn2-c1ccc(OCc2ccccc2)cc1	112
C=CCn1c(C(=O)N2CCN(c3ccccc3)CC2)cc2cc(S(=O)(=O)N(C)C)ccc21	99
COc1ccc(N=c2oc3cc(O)ccc3cc2-c2nc(-c3ccc(Br)cc3)cs2)cc1	149
CCn1c(=O)c(=O)n(CC(=O)N2CCOCC2)c2cccnc21	101
O=C(c1ccccc1)N1N=C(C(F)(F)F)CC1(O)c1cccc([N+](=O)[O-])c1 (stereo not drawn)	105
O=C(CSc1nc2c(sc(=S)n2Cc2ccco2)c(=O)n1-c1ccccc1)NCc1ccco1	117
Fc1cccc(-c2noc(Cc3nc(-c4ccc(Cl)cc4)cs3)n2)c1	102
COC(=O)C1=C(N)N(c2ccc(S(N)(=O)=O)cc2)C2=C(C(=O)CC(C)(C)C2)C1c1ccc(Cl)cc1 (stereo not drawn)	105
COc1ccc(C2C3CCC=C3C(C#N)=C(N)C2(C#N)C#N)c(OC)c1 (stereo not drawn)	112
Cc1ccc(NC(=O)C(C#N)=C(SCc2cccc(Cl)c2)SCc2cccc(Cl)c2)cc1	116
O=C(c1ccc(F)cc1)N1CCc2cc(CNS(=O)(=O)c3cccc4nsnc34)ccc21	106
c1cc2c(cc1-c1nnc(C3CCCC3)o1)OCO2	99
Cn1cc(CN2CCC(C(=O)N3CCC4(CC3)OCCO4)CC2)c2cc(Cl)ccc21	104
COc1ccc(OCCOCCn2c(-c3ccc(Cl)cc3)nc3ccccc3c2=O)cc1	104
CCN1C(=O)N(c2ccc(Cl)cc2)C(n2oc(=O)n(-c3ccc(Cl)cc3)c2=O)C1(C)C (stereo not drawn)	110
O=C(c1cccc(F)c1)N1CCN(c2ccc(Nc3ccccc3)nn2)CC1	107
Cc1ccc(S(=O)(=O)N2CCC(c3nc4cc(C(=O)N5CCCCC5)ccc4n3C3CCCCC3)CC2)cc1	101
O=S(=O)(NCCc1nc(-c2ccccc2)n[nH]1)c1ccccc1F	103
CCc1nc(-c2csc(S(=O)(=O)N3CCCC(C(=O)NC(C)C)C3)c2)no1 (stereo not drawn)	105
CCC(CC)c1nc(Cn2ccnc2)no1	105
COc1ccc(CCN2CCC(CNS(=O)(=O)c3cc(-c4cc(C)no4)cs3)CC2)cc1	102
CCCCCCCCCCOc1ccc(C(=O)Oc2ccc(C#N)cc2)cc1	104
CCOc1cc(-c2c(C#N)c(N)n3c(nc4ccccc43)c2C#N)ccc1OC	119
COc1cc2c(cc1OC)C(Nc1ccc(Cl)cc1)=NC(C)(C)C2	104
Fc1cccc(-c2nc(-c3ccc4c(c3)sc3ccccc34)c(-c3ccccc3)[nH]2)c1	107
CC1(C)CC(=O)C2=C(C1)OC1=C(C(=O)CC(C)(C)C1)C2c1ccc(-c2nnc(N)s2)cc1	106
COc1ccc(/C(O)=C2\C(=O)C(=O)N(c3ccccn3)C2c2cccc(Cl)c2)cc1 (stereo not drawn)	104
CC1(C)c2ssc(=S)c2-c2ccccc2N1C(=O)C(Cc1ccccc1)N1C(=O)c2ccccc2C1=O (stereo not drawn)	104
COc1ccc(/C(O)=C2/C(=O)C(=O)NC2c2ccc(OC)cc2OC)cc1 (stereo not drawn)	125
CCCCN(C)c1ncnc2onc(-c3ccc(C)cc3)c12	102
CCOC(=O)COc1ccc(/C=C2/C(=O)NC(=S)N(c3ccc(Cl)cc3)C2=O)cc1OC	105
Cc1cccc(NC(=O)c2cc3ccc(O)cc3oc2=Nc2ccc(C(=O)O)cc2)c1	111
O=C(CN1C2=NCCN2c2ccccc21)c1cccc(Br)c1	104
Cc1ccc(S(=O)(=O)NCc2nnc(NC(=O)CCCOc3ccc(Cl)cc3Cl)s2)cc1	106
COCCCn1c(SCc2nc(-c3cccc(Cl)c3)no2)nc2cc3c(cc2c1=O)OCO3	108
Cc1csc(-c2csc(S(=O)(=O)N(C)Cc3ccccc3)c2)n1	98
CC(C)C(=O)N1c2ccccc2NC2=C(C(=O)CC(C)(C)C2)C1c1ccccc1 (stereo not drawn)	96
O=C(C1CC1)N1c2ccccc2Sc2ccc(C(F)(F)F)cc21	109
O=C(CSc1ncccn1)N1CCN(C(=O)CSc2ncccn2)CC1	110
COc1ccc(NC(=O)c2cccnc2SCc2ccccc2C)cc1OC	107

Sorted by molar mass (low to high): 5 of the compounds above
SMILES	GIV-Gai inh
O=C(CN1C2=NCCN2c2ccccc21)c1cccc(Br)c1	104
CCCCCCCCCCOc1ccc(C(=O)Oc2ccc(C#N)cc2)cc1	104
CC(C)C(=O)N1c2ccccc2NC2=C(C(=O)CC(C)(C)C2)C1c1ccccc1 (stereo not drawn)	96
Fc1cccc(-c2nc(-c3ccc4c(c3)sc3ccccc34)c(-c3ccccc3)[nH]2)c1	107
CC1(C)CC(=O)C2=C(C1)OC1=C(C(=O)CC(C)(C)C1)C2c1ccc(-c2nnc(N)s2)cc1	106

Carrying on:
SMILES	GIV-Gai inh
CCCCCCC(CC[n+]1c(/C=C/C=C2N(CC)c3cc(Cl)c(Cl)cc3N2CC)n(CC)c2cc(Cl)c(Cl)cc21)S(=O)(=O)[O-] (stereo not drawn)	109
CC(C)c1ccc(-c2noc(N3CCC(C(=O)N4CCN(C5CCCCC5)CC4)CC3)n2)cc1	106
CCCCc1nn2c(=O)cc(CN(CCC)Cc3ccc(C(C)C)cc3)nc2s1	106
CC(C)Cn1c(=O)c(-c2ccc(C(=O)NC(C)C)cc2)nc2ccccc21	99
COc1cc(C2C(C#N)=C(N)Oc3n[nH]c(C)c32)ccc1OCc1ccccc1Cl (stereo not drawn)	99
CCOC(=O)c1sc2nc(CC(=O)OC)nc(Nc3ccc(OC)c(OC)c3)c2c1C	99
C=CCN1C(=O)/C(=c2/s/c(=C3\Sc4ccc(OC)cc4N3CC)c(=O)n2CC)SC1=S	164
O=C1C2N=NN(c3ccc(F)cc3)C2C(=O)N1c1ccccc1 (stereo not drawn)	99
O=C(Nc1cccc(C(F)(F)F)c1)c1ccc(F)c(S(=O)(=O)N2CCN(c3ccccc3)CC2)c1	109
CCOC(=O)c1cc(-c2ccc(/C=C3/NC(=S)NC3=O)o2)ccc1Cl	108
CCOc1ccccc1-n1c(=S)sc2c1nc(SC)n1c3ccccc3nc21	107
O=C(c1ccc(-c2ccccc2)cc1)N1c2ccccc2CCc2ccccc21	109
CCC1OC(c2ccc(OC)cc2)=Nc2ccccc21 (stereo not drawn)	105
COc1ccccc1NC(=O)C1OC2OC(C)(C)OC2C2OC(C)(C)OC12 (stereo not drawn)	109
O=C(NC1CCCC1)c1ccc2c(=O)n(CC3CCCO3)c(SCc3ccc(Cl)cc3)nc2c1 (stereo not drawn)	105
COc1ccc(C2=N/C(=C/c3c(F)cccc3Cl)C(=O)O2)cc1Br	112
CCN1C(=O)C2(c3ccccc31)N1CC3(C)CN2CC(C)(C1)C3=O (stereo not drawn)	105
COc1ccc(NC(=O)Cn2nc(C(=O)Nc3ccccc3)ccc2=O)cc1	101
CC(C)n1cnc2c(-c3ccc(F)cc3)csc2c1=O	107
Cc1ccc(-c2nnc(SCc3noc(CCC(=O)Nc4ccc(F)c(Cl)c4)n3)o2)cc1	104
Cc1oc2ccc(NS(=O)(=O)c3ccc4c5c(cccc35)C(=O)N4)cc2c1C(=O)OCc1ccccc1	104
COc1cccc(C(=O)N2CCOc3ccc(COCc4ccc(Cl)cc4)cc3C2)c1	95
COc1cccc(-n2nnc3c(N4CCN(C(=O)CCC5CCCCC5)CC4)ncnc32)c1	105
Cc1cn(-c2nc(-c3ccccc3)oc2-c2ccccc2)c(=O)nc1Nc1ccccc1	103
CCOc1ccc(Oc2nc3ccccc3n3c(CC)nnc23)cc1	104
CCOC(=O)c1[nH]c(C)c(CN(C(=O)c2cc3ccc(OC)cc3[nH]2)C2CCCCC2)c1C	99
Cc1ccc(S(=O)(=O)N(CC(O)Cn2c3ccc(Cl)cc3c3cc(Cl)ccc32)c2ccccc2)cc1 (stereo not drawn)	104
O=[N+]([O-])c1c(NCCCO)cc(NCc2ccc3c(c2)OCO3)c2nonc12	108
N#CC1=C(SCC(=O)Nc2cccc(Cl)c2)NC(=O)C(C#N)C12CCCCC2 (stereo not drawn)	108
Cc1csc(-c2csc(S(=O)(=O)Nc3ccc(F)c(Cl)c3)c2)n1	98
CCCSc1nc2c(c(-c3ccc(C)o3)c1C#N)CCCC2	117
COc1ccccc1CNC(=O)c1sccc1N(C)S(=O)(=O)c1ccccc1	95
O=C(CN1CCCC1)N1c2ccccc2Sc2ccc(Cl)cc21	114
Cc1cccn2c(=O)c(/C=C3\SC(=S)N(CCCC(=O)O)C3=O)c(N3CCCCC3)nc12	40*
CC(C)CSc1nnc2c(n1)[nH]c1ccccc12	124
O=C(NCc1ccccc1)C1CCN(c2nccnc2Sc2ccccc2)CC1	96
Cc1oc(C2CCN(C(=O)c3ccsc3)CC2)nc1C(=O)N1CCCCC1	96
O=C(NCc1ccccn1)c1ccc2c(c1)ncn2-c1ccc(OCc2ccccc2)cc1	105
CCOC(=O)N1CCC(NC(=O)CSc2nc3ccccc3n2S(=O)(=O)c2ccc(OC)cc2)CC1	114
Cc1sc(-c2nc(C(C)C)cs2)cc1S(=O)(=O)N1CCN(c2cccc(Cl)c2)CC1	104

Single values from the results shown.
`CC(C)Cn1c(=O)c(-c2ccc(C(=O)NC(C)C)cc2)nc2ccccc21` @ GIV-Gai inh = 99
`CCOc1cc(-c2c(C#N)c(N)n3c(nc4ccccc43)c2C#N)ccc1OC` @ GIV-Gai inh = 119
`Cc1n[nH]c(C)c1S(=O)(=O)N1CCCC(c2nnc(C(=O)Nc3ccccc3)s2)C1` (stereo not drawn) @ GIV-Gai inh = 100
`CCN1CCN(S(=O)(=O)c2cc(-c3nnc(C4CCCC4)o3)co2)CC1` @ GIV-Gai inh = 94

Later entries
SMILES	GIV-Gai inh
CC(C)n1ccnc(NC2CC2)c1=O	108
CCCn1c(=O)c(-c2ccc(C(=O)NCCN3CCCCC3C)cc2)nc2ccccc21 (stereo not drawn)	103
O=C(Nc1cc(Cl)ccc1Cl)/C(=C/c1ccc2c(c1)OCO2)NC(=O)c1ccccc1Br	113
O=[N+]([O-])c1cc(Oc2ccc3oc4c(c3c2)CCCC4)cc([N+](=O)[O-])c1	106
Cc1ccc(-c2nccc(Oc3ccc(C(=O)NC4CCCCC4)cc3)n2)cc1	103
O=C(CSC1=NC(=O)C(Cc2ccccc2)C(=O)N1)Nc1ccccc1Cl (stereo not drawn)	107
COC(=O)c1[nH]c(C)c(CN(C(=O)C2CCCCC2)C2CCCC2)c1C	106
Cc1ccc(NC(=O)c2sc3ncn(CC(=O)Nc4cccc(C(F)(F)F)c4)c(=O)c3c2C)c(Br)c1	124
CCN(CC)S(=O)(=O)c1ccc(-c2cn3cc(Cl)ccc3n2)cc1	102
COc1cccc(C2=NN3C(C2)c2cccc(OC)c2OC32CCCCC2)c1 (stereo not drawn)	107
CN(CC1(C)CCOCC1)S(=O)(=O)c1ccc(F)c(F)c1	95
CC(=O)N1CCCN(C(=O)C2CCC2)CC1	103
Cc1ccc(Cl)cc1NS(=O)(=O)c1ccc2c(c1)c(=O)n(CC(=O)N1CCCC1)c(=O)n2C	99

Only part of the results is shown; the hit share may differ from the screen's.
